Assay outcomes: PubChem, National Center for Advancing Translational Sciences (NCATS)
Menin MLL FP FL: displaces fluorescein MLL peptide from human menin; 290,000 tested, under 10 active; FP activity change, % at 61.4 µM; Fluorescence polarization, fluorescein-MLL peptide displacement from menin; inconclusive = falling polarisation curve, or a change in total fluorescence; inactive = total fluorescence flat and polarisation flat or rising; no compound was filed as active; the % refers to the polarisation; negative = inhibition;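 note: % of control where 0% means no effect; inhibitors lower the polarisation; unlabelled MLL peptide was the positive control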
Sfp PPTase inh: Sfp phosphopantetheinyl transferase inhibition. Q9F4F7. Biochemical Sfp PPTase activity, qHTS. Potency, µM, for the others: max response, negative = inhibition, actives largely listed as inhibitors. actives 3.5% (n = 310,000). AID 1490; active = well fitted inhibition curve with a large enough effect; inconclusive = small, poorly fitted or top-dose-only effect, or another doubt; inactive = no such curve, though single readings can be large or run the other way;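 note: the enzyme is Sfp with the accession as filed and its product quenches rhodamine fluorescence; potency is the fitted concentration of half-maximal effect; 0% = enzyme reaction without inhibitor and -100% = no enzyme wells; top concentration of the series not given in the record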
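Step 1, compound plus 15 nM Sfp-PPTase, 15 min, room temperature. Step 2, add rhodamine-CoA (5 uM) and BHQ-2-YbbR (12.5 uM). Step 3, read 525/598 nm fluorescence at 0 and 30 min.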
Numbers without * were called inactive; ? = inconclusive; & = joins results of further samples; ! = repeats disagree; [ ] = another dose, or the depositor's remark.

SMILES	Menin MLL FP FL	Sfp PPTase inh
N#Cc1c(Cl)nc(SCc2ccccc2)nc1-c1ccccc1	0.7	-60%
N#CC(C#N)=Cc1ccccc1OCc1ccccc1	2.4	-26%
C=C(C)C(=O)/C=C/c1ccc(Br)cc1	-1.5	-12%
O=C(NNc1nc(N2CCOCC2)nc(N2CCOCC2)n1)Nc1ccc(Cl)cc1	2.1	-3%
COC1=C[C@@H](C)C2CC3OC(=O)C[C@H]4C(C)=C(OC)C(=O)C([C@@]2(C)C1=O)[C@@]34C (stereo not given in full)	-0.2	10%
Cc1ccc(S(=O)(=O)C(C#N)c2nc3ccccc3nc2N2CCCCC2)cc1 (stereo not given)	?	4%
CC(=O)Nc1ccc(/C=C/C(=O)c2ccccc2)cc1	19	-10%
CN1C2CCC1/C(=C\c1ccccc1Cl)C(=O)/C2=C\c1ccccc1Cl	0.2	-5%
CC(c1ccccc1)n1c(NCCCn2ccnc2)nc2c1c(=O)[nH]c(=O)n2C (stereo not given)	0.2	4%
CC(C)(C)C(=O)/C(C#N)=c1\s/c(=C\c2ccncc2)c(=O)n1CCCN1CCOCC1	10	-6%
O=C1N[C@H](Cc2ccccc2)C(=O)N1Cc1cccc2ccccc12	-3.3	-13%
CCCCCCN(C(=O)CCCCCN1C(=O)NC(C2CC2)C(C(=O)OCc2ccccc2)=C1C)C(C(=O)NCCCC)c1ccc(OCC(=O)OC)c(C(=O)OC)c1 (stereo not given)	-1.1	10%
CC(C)Nc1oc(-c2ccccc2)nc1-c1cccc2ccccc12	1.7	-6%
Cn1c(=O)c(C(=O)COC(=O)c2cc(C(F)(F)F)nc3c(C(F)(F)F)cccc23)c(N)n(Cc2ccccc2)c1=O	-0.3	-6%
COC(=O)CCCC1=CC2=CC(=O)C(C)(OC(=O)c3cccs3)C(=O)C2=CN1c1ccc(CO)cc1 (stereo not given)	-2.5[11.7 µM]	-1%
Cc1nc2ccccc2c2c1C(=O)NC2=O	2.7	1%
COc1ccc(-c2ccc(CNCc3ccccn3)o2)cc1Cl	-2.3	-2%
CC12CN3CC(C)(CN(C1)C31C(=O)N(Cc3ccccc3)c3ccccc31)C2=O (stereo not given)	1.0	5%
NC(C(=O)O)C(O)c1ccc(O)c(O)c1 (stereo not given)	-1.1	45µM*
COc1cc(-c2noc(CCC(N)=O)n2)cc(OC)c1OC	-2.2	18%
CCCC[C@]12Cc3cc(C#N)ccc3C(O1)c1c(cc(C)n(-c3ccccc3)c1=O)O2	-3.3[11.7 µM]	-3%
CCC(NC(=S)NC1CCCCC1)c1ccc(C)cc1 (stereo not given)	-4.6	13%
CC(C)(C)OC(=O)NCCCCC1=CC2=CC(=O)C(C)(OC(=O)c3ccco3)C(=O)C2=CO1 (stereo not given)	?	1%
C[C@H]1C(O)[C@@]23CCC4C5(C=[N+](CCO)C[C@]4(C)CCC5)C2C[C@@H]1C3 (stereo not given in full)	-4.5	1%
COc1ccccc1NC(=O)C1=C(C)NC(SCC(=O)c2ccc(C)cc2)=C(C#N)C1c1ccco1 (stereo not given)	?	45µM*
CN1CCN(c2ccc([N+](=O)[O-])cc2/C=N/NC(=O)c2cccc([N+](=O)[O-])c2)CC1	1.2	-23%
CC1OC(OC2C(OC3C(O[C@H]4CC[C@]5(C)C6C=C[C@]78OC[C@@]9(CC[C@@H](C)[C@H](C)C97)[C@H](O)C[C@@]8(C)[C@]6(C)CC[C@H]5C4(C)C)OC(C)C(O)C3O)OC(CO)C(O)C2O)C(O)C(O)C1O (stereo not given in full)	1.6	79µM*
COc1ccc2o/c(=N/NC(=S)Nc3ccccc3)c(C(N)=O)cc2c1	?	6%
Cn1c(=O)c(C(=O)COC(=O)c2cc(C(F)(F)F)nc3ccccc23)c(N)n(Cc2ccccc2)c1=O	?	14%&8%
CC[C@H](C)[C@@H](NC(=O)O[C@H]1C(=O)c2ccc(OC)cc2O[C@@H]1c1ccc2c(c1)OCO2)C(=O)OC	-4.9&-3.6	-1%&-13%
CCn1cc(C(=O)N/N=C(/C)c2ccc(F)cc2)c(=O)c2cc(F)c(N3CCCC3)cc21	-1.8	6%
C[C@@H](/C=C/c1ccc2ccccc2c1)C1COC(=O)C[C@H]1O (stereo not given in full)	4.3	-12%
COc1ccc([C@]23Cc4cc(C#N)ccc4[C@H](O2)c2c(cc(C)n(Cc4ccccc4)c2=O)O3)cc1	6.6[11.7 µM]	4%
NS(=O)(=O)c1cc2c(cc1Cl)N[C@@H]([C@@H]1C[C@@H]3C=C[C@H]1C3)NS2(=O)=O	?	3%
CC12C=C(/C=C/CCc3ccco3)C(C)(C1)[C@H](CCc1ccco1)CC2=O (stereo not given in full)	2.9	-13%
CC(N)COC(=O)C(CCCCN)NC(=O)Cc1c(-c2ccc3ccccc3c2)[nH]c2c1ccc1ccccc12 (stereo not given)	-1.4	?
C[C@]12CC[C@H]3c4ccc(O)cc4CC[C@@H]3[C@H]1CC[C@@H]2OC(=O)CCC1CCCC1	3.0	31%[activator]
COC(=O)[C@H](Cc1ccccc1)NC(=O)O[C@@H]1Cc2cc(OC)ccc2O[C@H]1c1cccc(OC)c1	3.8	?
CCN(CC)CCN1C(=O)C(=O)/C(=C(/O)c2ccc(C)cc2)C1c1ccncc1 (stereo not given)	2.1	0%
COc1cccc(NC(=O)c2cc3cccc(OC)c3o/c2=N\O)c1	-7.1	1%
Cc1cc(C)nc(NC(=O)c2ccc3c(c2)OCO3)c1	0.8	6%
CC(=O)OC[C@@]12C(=O)[C@@H](O)[C@@H](C)[C@]3(C[C@@H](c4ccoc4)O[C@@H]3OC(C)=O)[C@H]1CCC[C@]21CO1	1.8	-15%
C=CC[C@@H]1C=C[C@H](O/N=C/c2ccc(C(=O)N3[C@H](c4ccc(C)cc4)[C@@H](C)CC[C@H]3C(=O)OC)cc2)[C@@H](CO)O1	2.8	-5%
C=C(C)C(O)/C=C/c1ccc(Br)cc1 (stereo not given)	2.5	22%&-1%
CCC/C=C(\CCC)C(NS(=O)(=O)c1cccc2cccnc12)c1ccc(-c2ccccc2)cc1 (stereo not given)	33[activator]	15%
C[n+]1ccccc1/C=N\O	-5.1[24.8 µM]	11%
COC(=O)[C@H](CCSC)NC(=O)C/C=C\[C@@H](C)[C@@H](CO)OC	0.3[11.7 µM]	19%
COc1ccc(C(C)N2CC34C=CC(O3)C(C(=O)OCC(C)C)C4C2=O)cc1 (stereo not given)	6.5	15%
COc1ccc(C2CC(c3ccccc3)Oc3cc(C)c(Cl)c(C)c32)cc1 (stereo not given)	-2.2	-2%
CCCC[C@]12Cc3cc(C#N)ccc3C(O1)c1c(c3cc(F)ccc3oc1=O)O2	3.0[11.7 µM]	4%
Cn1c(=O)c2c(ncn2CC(=O)N/N=C/c2c[nH]c3ccccc23)n(C)c1=O	0.7	23%
Cc1ccc(NC(=O)Cn2cnc3sc(C(=O)NCCN(C)C)c(C)c3c2=O)cc1Cl	0.7	15%
COc1cc(OC)cc(C2=Nn3c(nnc3-c3ccccc3O)SC2)c1	1.0	3%
COc1ccc(C(OCCN2CCC[C@@H](C(=O)O)C2)(c2ccc(OC)cc2)c2ccc(OC)cc2)cc1	?	10%
CC(C)C[C@@H](CC(=O)N[C@@H](CCC(=O)O)CC(=O)O)NC(=O)[C@@H]1CNCC[C@H]1NC(=O)C[C@@H](NC(=O)C[C@H](Cc1ccccc1)NC(=O)[C@@H]1CNCC[C@H]1N)C(C)C	-0.1	-11%
O=C(NC1CCCCC1)C(c1cc2c(cc1[N+](=O)[O-])OCO2)N1CCCCC1 (stereo not given)	1.1	-14%
COC(=O)c1c(C)nc(C)c(C(=O)OC)c1-c1ccccc1[N+](=O)[O-]	1.4	10%
O=C1CN(Cc2ccccc2)S(=O)(=O)c2ccccc21	-6.6	?
O=C(CSc1nnnn1-c1cccc(Cl)c1)Nc1ccc2c(c1)CCC2	2.0	6%
CN(C)c1nc(N(C)C)nc(N(C#N)CN2C(=O)c3ccccc3C2=O)n1	0.4	14%

New compounds follow:
SMILES	Menin MLL FP FL	Sfp PPTase inh
COC(=O)N[C@H](c1ccccc1)C(C(C)=O)C(=O)OC (stereo not given in full)	-3.6	-1%
CC(=O)OC/C=C(C)/C=C/C=C(C)/C=C/C1=C(C)CCCC1(C)C	0.1&1.7	-4%&-23%&16%
COC(=O)CCC(=O)OC1(C)C(=O)C=C2C=C(C3CC3)N(c3ccc(OC)cc3)C=C2C1=O (stereo not given)	-0.2[11.7 µM]	17%
C=CCC(O)[C@H](Cc1cnc2ccccc2c1)[C@H](/C=C/CCCC)c1ccccc1 (stereo not given in full)	3.9	0%
CN1CCC[C@@H](CC2c3ccccc3Sc3ccccc32)C1	-6.2[24.8 µM]	7%
CN(C)C(=O)[C@]1(C)C[C@H]1[C@H](NC(=O)CNC(=O)[C@@H]1CCCN1C(=O)[C@]1(C)C[C@H]1[C@H](NC(=O)OCc1ccccc1)c1ccccc1)c1ccccc1	1.5	3%
N/C(=N\c1nc(C(F)(F)F)cc(=O)[nH]1)Nc1ccc(Cl)cc1	-1.9	10%
C[C@@H](/C=C\c1cccc(Oc2ccc(F)cc2)c1)N(O)C(N)=O	?	?
CC(=O)Nc1ccc(S(=O)(=O)Nc2ccc3c(c2)C(=O)OC3)cc1	1.4	-3%
Cc1cccn2c(=O)c(C=Nc3c(C)n(C)n(-c4ccccc4)c3=O)c(N3CCCC3)nc12	1.7	6%
COC(=O)[C@@]1(Cc2ccccc2)[C@H]2c3cc(C(=O)N4CCCC4)n(Cc4ccc(C(F)(F)F)nc4)c3C[C@H]2CN1C(=O)c1ccccc1	3.5	3%
O=C(Cc1ccccc1I)Nc1ccccc1	1.5	26%
CCN(CC)c1ccc2c(c1)CCCN2	-1.9	-6%
O=c1c2ccc([N+](=O)[O-])c3cccc(c32)c2nc3ccccc3n12	12	-3%
Cc1n[nH]c(=S)c2nn(-c3ccccc3)c(C)c12	-0.6	10%

Arranged by formula weight (high to low): part of the list above.
SMILES	Menin MLL FP FL	Sfp PPTase inh
CN(C)C(=O)[C@]1(C)C[C@H]1[C@H](NC(=O)CNC(=O)[C@@H]1CCCN1C(=O)[C@]1(C)C[C@H]1[C@H](NC(=O)OCc1ccccc1)c1ccccc1)c1ccccc1	1.5	3%
COC(=O)[C@@]1(Cc2ccccc2)[C@H]2c3cc(C(=O)N4CCCC4)n(Cc4ccc(C(F)(F)F)nc4)c3C[C@H]2CN1C(=O)c1ccccc1	3.5	3%
COC(=O)CCC(=O)OC1(C)C(=O)C=C2C=C(C3CC3)N(c3ccc(OC)cc3)C=C2C1=O (stereo not given)	-0.2[11.7 µM]	17%
Cc1cccn2c(=O)c(C=Nc3c(C)n(C)n(-c4ccccc4)c3=O)c(N3CCCC3)nc12	1.7	6%
C=CCC(O)[C@H](Cc1cnc2ccccc2c1)[C@H](/C=C/CCCC)c1ccccc1 (stereo not given in full)	3.9	0%
O=C(CSc1nnnn1-c1cccc(Cl)c1)Nc1ccc2c(c1)CCC2	2.0	6%
CN(C)c1nc(N(C)C)nc(N(C#N)CN2C(=O)c3ccccc3C2=O)n1	0.4	14%
CC(=O)Nc1ccc(S(=O)(=O)Nc2ccc3c(c2)C(=O)OC3)cc1	1.4	-3%
O=C(Cc1ccccc1I)Nc1ccccc1	1.5	26%
CC(=O)OC/C=C(C)/C=C/C=C(C)/C=C/C1=C(C)CCCC1(C)C	0.1&1.7	-4%&-23%&16%
C[C@@H](/C=C\c1cccc(Oc2ccc(F)cc2)c1)N(O)C(N)=O	?	?
O=c1c2ccc([N+](=O)[O-])c3cccc(c32)c2nc3ccccc3n12	12	-3%
COC(=O)N[C@H](c1ccccc1)C(C(C)=O)C(=O)OC (stereo not given in full)	-3.6	-1%
Cc1n[nH]c(=S)c2nn(-c3ccccc3)c(C)c12	-0.6	10%

Further results:
SMILES	Menin MLL FP FL	Sfp PPTase inh
CCSc1nnc(NC(=O)/C=C/c2ccc3c(c2)OCO3)s1	2.1	1%
CNc1nc(SC)n(C)c(=O)c1N=O	0.7	25%
O=C(CCl)N1c2ccccc2CCc2ccccc21	-0.1	-9%
COc1cc2oc(-c3ccccc3)cc(=O)c2cc1OC	8.4	7%
CN1C(=O)C[C@@H](C(=O)N[C@@H](Cc2cnc[nH]2)C(=O)N2CCC[C@H]2C(N)=O)NC1=O	-0.1	-9%
Cc1ccnc(N2C(=O)c3ccc([N+](=O)[O-])cc3C2=O)c1	-2.1	24%
O=C(CN1C(=O)CC(c2ccccc2)S(=O)(=O)c2ccccc21)N1CCOCC1 (stereo not given)	-0.2	12%
Cc1cc(=O)c2c(O)c3c(O)cc(=O)c4c3c3c(cc(O)c1c23)C(C)(C)C=4O	?	56µM*!
COc1ccc(CCCO[C@@H](Cn2ccnc2)c2ccc(OC)cc2)cc1	?	-4%
Cc1ccc(C)c(-n2nnnc2SCC(=O)c2c(N)n(C)c(=O)n(C)c2=O)c1	0.5	9%
CC1(C)CN=C(N2CCN(C3=NCC(C)(C)S3)CC2)S1	3.9	23%
COc1ccc2cc(CN(CC3COCCO3)S(=O)(=O)c3c(C)cc(C)cc3C)c(=O)[nH]c2c1 (stereo not given)	-2.4	6%
O=C1[C@H]2[C@H]3[C@H](O)[C@H](O)C/C(=N/OC[C@@H](O)COCc4ccco4)[C@@H]3CC[C@@H]2C(=O)N1C1CCCCC1	-3.2[11.7 µM]	0%
CCC(=O)Nc1ccc(C(=O)CN2CCC(C)CC2)cc1	-3.3	-15%
CC(C)COC[C@H](CN(Cc1ccccc1)c1ccccc1)N1CCCC1	-1.1[24.8 µM]	5%

Some of the compounds tested (hit frequency here may not be typical).
